Screening data (PubChem)
ClpP mod = qHTS Assay for Activators of ClpP; purified B. subtilis ClpP, FRET peptide cleavage, 20 min; Potency, µM (highest dose often 57.5 µM), for the others: at the top dose activity change, negative = active; 340,000 compounds, 1.9% hits; active = well fitted falling curve with a large enough effect; inconclusive = small, poorly fitted or top-dose-only effect; inactive = no such curve, though single readings can be large or run the other way; note: potency is the fitted concentration of half-maximal effect; the source files actives as falling curves though it sought activators and does not explain the sign; nearly all actives have a fitted effect of over 65% in size; many hits overshoot -100%
Target sequence (P80244 whole entry, looked up): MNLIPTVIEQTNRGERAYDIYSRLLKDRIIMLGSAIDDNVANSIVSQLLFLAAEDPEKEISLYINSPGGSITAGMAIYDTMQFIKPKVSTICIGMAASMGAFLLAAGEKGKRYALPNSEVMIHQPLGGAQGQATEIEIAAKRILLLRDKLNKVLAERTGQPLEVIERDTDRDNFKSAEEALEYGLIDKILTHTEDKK
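Buffer: 100 mM Tris/HCl pH8, 100 mM KCl, 0.05% low protease BSA, 2.5% glycerol, 0.01% Tween-20. ClpP 10 microg/mL final; 20 min RT; delta FRET normalized to ADEP and DMSO controls.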
Sfp PPTase inh = Sfp phosphopantetheinyl transferase inhibition | Biochemical Sfp PPTase activity, qHTS | Potency, µM, inactives show max response, negative = inhibition, actives largely listed as inhibitors | 310,000 compounds, 3.5% hits; active = well fitted inhibition curve with a large enough effect; inconclusive = small, poorly fitted or top-dose-only effect, or another doubt; inactive = no such curve, though single readings can be large or run the other way;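 note: the enzyme is Sfp with the accession as filed and its product quenches rhodamine fluorescence; potency is the fitted concentration of half-maximal effect; 0% = enzyme reaction without inhibitor and -100% = no enzyme wells; top concentration of the series not given in the record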
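Sfp 15 nM + cpd, 15 min RT; start w/ rhodamine-CoA 5 uM, BHQ-2-YbbR 12.5 uM (final); 50 mM Hepes pH 7.6, 10 mM MgCl2, 0.01% NP-40, 0.01% BSA; read 525/598 nm at 0 and 30 min.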
TRPV1 PAM = potentiators of human vanilloid receptor 1 (TRPV1). TRPV1-expressing cells, Fluo-8 calcium influx, capsaicin EC20 potentiation; host cell line not named in the record; control for the full effect not named in the record. potentiation, % at 8.33 µM. 320,000 compounds, 0.02% hits; active means potentiation above 80%; inconclusive means 30% to 80%; inactive means below 30%; note: 0% is about no effect
Target sequence (Q8NER1 whole entry, looked up): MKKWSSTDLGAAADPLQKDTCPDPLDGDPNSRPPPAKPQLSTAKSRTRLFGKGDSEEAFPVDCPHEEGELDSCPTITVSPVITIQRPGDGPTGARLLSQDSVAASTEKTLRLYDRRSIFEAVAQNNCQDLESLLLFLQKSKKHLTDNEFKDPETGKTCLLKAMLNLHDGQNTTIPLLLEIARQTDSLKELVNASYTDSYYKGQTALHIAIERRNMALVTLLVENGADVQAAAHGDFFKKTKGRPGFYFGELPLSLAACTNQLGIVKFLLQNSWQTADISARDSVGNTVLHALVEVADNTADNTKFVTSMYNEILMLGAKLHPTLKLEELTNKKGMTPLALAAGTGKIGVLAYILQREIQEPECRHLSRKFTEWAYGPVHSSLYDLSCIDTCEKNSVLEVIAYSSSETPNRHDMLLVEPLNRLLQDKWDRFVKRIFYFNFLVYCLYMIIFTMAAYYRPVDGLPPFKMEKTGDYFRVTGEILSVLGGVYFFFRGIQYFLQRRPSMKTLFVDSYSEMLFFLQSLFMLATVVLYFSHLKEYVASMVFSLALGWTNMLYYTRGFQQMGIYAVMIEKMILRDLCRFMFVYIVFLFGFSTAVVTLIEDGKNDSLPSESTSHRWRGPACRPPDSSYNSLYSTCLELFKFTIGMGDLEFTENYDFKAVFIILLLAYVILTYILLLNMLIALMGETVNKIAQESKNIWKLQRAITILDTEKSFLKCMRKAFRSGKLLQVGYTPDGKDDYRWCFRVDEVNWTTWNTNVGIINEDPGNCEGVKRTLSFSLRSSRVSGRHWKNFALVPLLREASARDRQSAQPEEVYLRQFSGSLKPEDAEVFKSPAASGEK
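Cells expressing TRPV1 were dye-loaded with Fluo-8 and read kinetically: 10 s baseline, 3 min after compound (agonist portion), then 2 min after EC20 capsaicin (allosteric enhancer portion). Calcium-bound dye fluorescence at 480/520 nm.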
PINK1 modulator = PINK1 expression modulation; 410,000 compounds, 0.2% hits; Potency, µM (series often up to 76.6 µM), without a hit: top-dose activation (PINK1 increase), hits mostly activators; AID 624263; PINK1 immunofluorescence, high-content cytometry, 24 h; active = well fitted activation curve with a large enough effect; inconclusive = small, poorly fitted or top-dose-only effect; inactive = flat fitted curve, though single readings scatter; cell line not stated here;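 note: potency is the fitted concentration of half-maximal effect; % of control where 0% means no effect; nearly all actives have a fitted effect of over 65% in size; a mitochondrial uncoupler was the plate control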
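Decision-based qHTS: stable cells, 24 h exposure to five compound concentrations, CCCP as control. Fixed cells stained for PINK1 plus nuclear, mitochondrial and cell markers, cytometer read.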
TRPML1 inh = human mucolipin-1 channel inhibition | 390,000 compounds, 0.02% hits | Q9GZU1 | TRPML1-inducible cells, Ca2+ dye fluorescence, FDSS; hits give low values; inhibition of EC80 agonist-evoked calcium signal | activity change, negative = inhibition, % (concentration not given with the values) | AID 624415; in the data active means activity change below about -50%; inconclusive means about -30% to -50%; inactive means above about -30%;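 note: stimulus is agonist 54-4 at its EC80 concentration; % is set by controls: 0 for no effect and ±100 for the full control effect; the text of the record puts the active cut at -80%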
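Calcium fluorescence in TRPML1-DL cells induced overnight with Tet: a 110 s read after compound pin addition, then a 110 s antagonist read after challenge with 54-4 at 4 uM final (EC80).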
TRPML1 agonist = agonists of human TRPML1 channel | activation, % (no concentration beside the values) | 410,000 compounds, 0.12% hits | TRPML1-expressing cells, Ca2+ dye fluorescence, FDSS; host cell line not named in the record; reference of the full effect not given here | Q9GZU1 | AID 624414; in the data active = activation above about 50%; inconclusive = about 30% to 50%; inactive = below about 30%; note: 0% is about no effect; the text of the record puts the active cut at 80%
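TRPML1-DL cells, Tet-induced overnight (~16 h, 37 degrees C), loaded 45-90 min at room temperature with Ca8 no-wash calcium dye plus quencher. FDSS fluorescence: 10 s baseline, compound pin-transfer, 110 s agonist read, then EC80 54-4 (4uM final) and 110 s antagonist read.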
Menin-MLL FL inh = inhibitors of human menin-MLL interaction, wild-type MLL peptide; Fluorescence polarization, fluorescein-MLL peptide displacement from menin; FP activity change, % at 61.4 µM; 290,000 tested, under 10 active; AID 1766; inconclusive = falling polarisation curve, or a change in total fluorescence; inactive = total fluorescence flat and polarisation flat or rising; no compound was filed as active; the % refers to the polarisation; negative = inhibition;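 note: % of control where 0% means no effect; inhibitors lower the polarisation; unlabelled MLL peptide was the positive control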
* = called active by the depositor; ? = inconclusive; · = not tested or not shown; [ ] = another dose, or the depositor's remark. Outcome played no part in choosing rows (roughly 4.4% active in at least one column).

SMILES | ClpP mod | Sfp PPTase inh | TRPV1 PAM | PINK1 modulator | TRPML1 inh | TRPML1 agonist | Menin-MLL FL inh
COc1cccc(C=NCC(C)N=Cc2cccc(OC)c2O)c1O (centres undefined) | 0.6% | 17.7% | -11.2 | 3.0% | 3.2 | -1.3 | ·
COc1cccc(Cn2c(=O)c(-c3ccccc3)nc3cnc(N4CCNCC4)nc32)c1 | · | -6.9% | · | 2.5% | · | · | 3.3
CCCc1nc(SCC(=O)Nc2ccccc2OC)c2c(=O)n(C)c(=O)n(C)c2n1 | -3.8% | -3.7% | -5.1 | 0.3% | 11.2 | 0.3 | 0.7
COc1ccc(OC)c(N(/C(N)=N/c2nc(C)cc(C)n2)S(=O)(=O)c2ccc(NC(C)=O)cc2)c1 | · | 1.9% | 8.7 | 7.7% | 28.3 | 0.6 | 3.2
CC(SCc1ccccc1)C(=O)NCc1ccccn1 (centres undefined) | · | -7.1% | 15.6 | -0.2% | -12.3 | -0.4 | 5.2
N#Cc1c(-c2ccccc2)cc(C2CC2)nc1SCC(=O)c1cccs1 | 1.1% | 3.5% | -10.5 | 2.6% | 6.2 | 10.1 | ?
CCN(CC(=O)NCc1cccs1)C(=O)c1ccc(S(=O)(=O)N(C)c2ccccc2)cc1 | 22.4µM* | · | · | 0.4% | -5.9 | 0.1 | ·
COc1ccc(CC(=O)N(CCC2=CCCCC2)c2c(N)n(Cc3ccccc3)c(=O)[nH]c2=O)cc1 | 0.9% | · | · | 2.4% | -21.8 | 6.4 | ·
Cc1nc2ccc(F)cc2cc1C(=O)NC(C)C | 0.1% | 12.2% | -2.2 | 3.8%[38.3 µM] | 3.6 | 1.7 | -1.2
Cc1nn(-c2ccc(F)cc2)c(-n2cccc2)c1C(=O)N1CCN(c2ccccc2F)CC1 | -2.1% | · | · | -0.2% | -4.4 | 3.4 | ·
COc1ccc(-c2nn(-c3ccccc3)cc2CNC[C@H]2O[C@@H](n3cnc4c(N)ncnc43)[C@H](O)[C@@H]2O)cc1 | -11.6% | · | · | 0.8% | 13.2 | -0.9 | ·
OCCN(Cc1ccccc1)Cc1ccccc1F | -0.9% | 39.8µM* | -2.3 | -0.6%[38.3 µM] | 3.4 | 0.8 | 2.3
COc1ccc(N(CC(=O)Nc2cccc(C(C)=O)c2)S(=O)(=O)c2ccccc2)c(OC)c1 | -1.7% | · | · | 8.8% | 33.7 | 2.2 | ·
O=C(O)c1cn(-c2ccccc2)nc1-c1ccncc1 | ? | 6.2% | -20.4 | -2.6% | 13.9 | 0.4 | 4.3
C(=N\NC1=Nc2cccc3cccc1c23)/c1ccccc1 | -2.0% | ? | 2.3 | 5.4% | 4.3 | 5.0 | ·
Cn1c(NC(=O)c2ccc(F)cc2)c(-c2cccs2)c(=O)c2ccccc21 | 15.5% | 4.5% | 7.5 | 0.8% | 13.8 | 0.7 | -2.3
CCOC(=O)c1[nH]c2c(c1Cc1ccccc1)C(=O)CC(c1ccc(Cl)cc1)C2 (centres undefined) | -5.1% | · | · | 0.7% | 41.4 | 0.7 | ·
CC1CCN(S(=O)(=O)c2ccccc2)CC1 | · | 5.3% | 7.7 | 1.6% | 21.7 | -0.4 | 3.2
O=C(CSc1nnnn1-c1ccc2c(c1)OCCO2)OC1CCCCC1 | -1.9% | -3.3% | 11.2 | -1.5% | 4.1 | 1.2 | 0.9
Cc1cc(OCC(=O)N2CCCC2)ccc1Cl | -2.9% | -4.5% | -18.1 | -0.4% | 29.1 | -0.1 | -2.4

One compound at a time, from the list above. Screens in order: ClpP mod | Sfp PPTase inh | TRPV1 PAM | PINK1 modulator | TRPML1 inh | TRPML1 agonist | Menin-MLL FL inh
Cc1cc(OCC(=O)N2CCCC2)ccc1Cl reads -2.9% | -4.5% | -18.1 | -0.4% | 29.1 | -0.1 | -2.4
O=C(CSc1nnnn1-c1ccc2c(c1)OCCO2)OC1CCCCC1 reads -1.9% | -3.3% | 11.2 | -1.5% | 4.1 | 1.2 | 0.9

Next section:
SMILES | ClpP mod | Sfp PPTase inh | TRPV1 PAM | PINK1 modulator | TRPML1 inh | TRPML1 agonist | Menin-MLL FL inh
O=[N+]([O-])c1ccc(Cl)c(/C=N/n2c(-c3ccncc3)n[nH]c2=S)c1 | · | 56.2µM* | ? | 0.9% | 1.6 | 0.8 | -2.2
COc1cccc(C(=O)Nc2ccc(N3CCN(C(=O)c4cccs4)CC3)cc2)c1 | -0.2% | 3.7% | -4.4 | 6.9% | 10.0 | -0.8 | -1.4
COc1ccc(Oc2nc3c(C)cccn3c(=O)c2/C=C(\C#N)C(N)=O)cc1 | · | 11.9% | · | 3.3% | -13.3 | 1.0 | 1.7
CCc1cc(C(=O)N(CC)CC(=O)Nc2ccc(OC)cc2)sc1C | 3.6% | · | -1.9 | 2.7% | 7.3 | 3.7 | ·
O=C(CCCSc1ccccc1)Nc1nc(-c2ccco2)c(-c2ccco2)s1 | ? | 15.8µM* | 7.9 | 11.0% | 15.4 | 2.7 | 14.1
C[C@H](NC(=O)[C@@H]1CSC2c3ccccc3C(=O)N21)C(=O)NC1CCCC1 (some centres undefined) | 0.4% | 0.9% | -6.3 | -0.3% | -2.6 | 0.3 | ·
CC(C)C[C@H](NC(=O)c1nc[nH]c1C(=O)N1CCc2ccccc2C1)C(=O)OCc1ccccc1 | 1.7% | 17.2% | 25.2 | 2.6% | 6.5 | 1.7 | 1.5
Cc1ccccc1S(=O)(=O)/N=C(/Nc1c(C)n(C)n(-c2ccccc2)c1=O)c1ccccc1 | -0.2% | 6.8% | ? | 0.9% | -17.1 | -0.6 | 1.9
CC(C)(C)C1CCC(=NNC(=O)C2COc3ccccc3O2)CC1 (centres undefined) | 0.9% | · | 14.9 | 9.4% | -11.6 | -0.5 | ·
Cc1ccc2c(c1)N(CC(=O)N1CCCCCC1)C(=O)c1cccnc1O2 | -0.2% | 12.8% | ? | 0.6% | -15.4 | 0.2 | 2.7
CC(C)Oc1cccc(C(=O)C2CCCN(C(=O)CCc3cnn(C)c3)C2)c1 (centres undefined) | -2.3% | 5.8% | -27.9 | ? | -4.4 | 0.2 | -1.4
CC1CN(C(=O)CCNS(=O)(=O)c2ccc(Br)cc2)CC(C)O1 (centres undefined) | -10.3% | · | -12.2 | 1.3% | 4.8 | -0.9 | ·
[S-]C(=Nc1ccc(Cl)cc1)N[n+]1ccccc1 | 28.2µM* | -2.7% | 9.9 | 0.1% | 35.2 | -1.6 | -0.9
COc1ccccc1N(CC(=O)NCCSc1ccccc1)S(=O)(=O)c1ccc(C)cc1 | -3.7% | · | · | -0.1% | 10.4 | 0.4 | ·
O=C(NCc1ccc(F)cc1)C1CCN(S(=O)(=O)c2ccc(Br)s2)CC1 | · | 17.9% | 15.5 | -1.8% | 1.3 | -0.3 | 0.0
CCOC(=O)c1cc(NC(=O)C2C3C=CC(O3)C2C(=O)O)cc(C(=O)OCC)c1 (centres undefined) | · | 4.9% | 7.1 | 0.5% | -14.3 | 1.6 | 5.5
O=C(N=C1c2ccccc2CN1c1ccc(F)cc1)c1ccc(Cl)nc1 | -2.9% | -2.8% | 6.3 | 4.3% | 0.5 | 1.6 | -1.1
COCCCNC(=O)C1CC(=O)N(CCc2ccccc2)C1 (centres undefined) | 3.1% | 9.1% | 10.6 | 2.0%[38.3 µM] | -4.6 | 0.0 | 4.0
Cc1cccc(S(=O)(=O)NCCC(=O)OCC(=O)Nc2ccc(C#N)cc2)c1 | 0.7% | 1.4% | -0.1 | 2.3% | ? | 0.5 | 10.7
Cc1ccnc(SCc2cn3c(C)cc(C)nc3n2)n1 | 4.1% | -12.6% | 3.4 | 0.0% | 21.3 | 0.9 | 2.0
COC(=O)c1ccccc1S(=O)(=O)N1CCC(NC(=O)C(Cc2cccc(OC)c2OC)NC(C)=O)CC1 (centres undefined) | · | 10.4% | -2.1 | 0.7% | -16.3 | 0.7 | -2.5
O=C(Nc1ccccc1N1CCCC1)c1ccc(Cl)c(S(=O)(=O)N2CCOCC2)c1 | -5.1% | · | -8.6 | 1.5% | 19.7 | 0.4 | ·
O=C(CCc1c[nH]c2ccccc12)N=Nc1c(O)[nH]c2ccccc12 | · | 21.5% | 7.8 | -2.1% | -9.2 | -0.2 | 4.3
O=C(CSC(=S)N1CCCCC1)Nc1ncc2c(n1)CC(c1ccco1)CC2=O (centres undefined) | · | -14.0% | · | -0.2% | 6.8 | 0.2 | 5.8
CC(=NC1CCCC1)c1c(C)[nH]n(-c2nc3ccccc3s2)c1=O | -1.0% | -14.4% | 11.9 | -0.2% | -10.4 | -0.6 | ?
O=C(NCc1ccccc1Cl)C1CCCN(c2nc3ccsc3c(=O)s2)C1 (centres undefined) | · | 9.0% | -4.6 | · | · | · | -1.0
Cc1nc2[nH]onc2c2nccc(=O)c12 | -1.8% | -0.2% | -0.5 | -1.4% | 0.7 | -0.5 | -1.3
CCN(CC)S(=O)(=O)c1ccc(C)c(NC(=O)CN2CCN(Cc3ccccc3)CC2)c1 | 0.7% | 79.4µM* | -1.3 | -0.1% | 18.3 | -0.5 | -0.6
CCCn1c(CCC(=O)Nc2cc(OC)cc(OC)c2)nc2cccnc21 | -0.5% | · | · | 2.8% | 20.9 | 1.3 | ·
CCOC(=O)c1cnc2ccc(OC)cc2c1NCCN1CCOCC1 | -12.9% | 16.5% | -7.5 | 0.3% | -3.9 | -1.1 | -0.8
CCOC(=O)CSc1nnc(-c2ccccc2OC)o1 | -4.6% | 10.4% | 5.9 | -0.7%[38.3 µM] | 4.0 | -0.1 | -1.5
Cc1cc(-c2ccc3c(c2)COc2c4ccccc4nn2-3)on1 | -21.8% | · | · | 12.9% | 34.1 | -1.2 | ·
Cc1ccc(-c2nc3ccsc3c(=O)o2)cc1 | -5.0% | 11.4% | -5.5 | -2.6% | 20.7 | 0.3 | -1.6
CCCCC(C)n1[nH]c(=O)c2c(C)cc(C)nc21 (centres undefined) | · | -6.3% | -0.6 | 2.7% | -1.1 | -0.3 | 2.5
O=c1cc(-c2ccc(F)cc2)nc(SCc2nc(-c3cccc(C(F)(F)F)c3)no2)[nH]1 | 0.8% | · | · | 0.5% | 7.5 | -0.3 | ·
O=C(N/N=C1/CCc2ccccc21)C1CC1 | · | 1.7% | 4.6 | 0.8% | -11.3 | 0.0 | -0.6
